Menin-MLL FL inh: inhibitors of human menin-MLL interaction, wild-type MLL peptide; Fluorescence polarization, fluorescein-MLL peptide displacement from menin; FP activity change, % at 61.4 µM; 290,000 tested, under 10 active; AID 1766; inconclusive = falling polarisation curve, or a change in total fluorescence; inactive = total fluorescence flat and polarisation flat or rising; no compound was filed as active; the % refers to the polarisation; negative = inhibition;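 note: % of control where 0% means no effect; inhibitors lower the polarisation; unlabelled MLL peptide was the positive control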
An asterisk follows results filed as active; ? = inconclusive; & = joins results of further samples; [ ] = remark or other dose. Some of the compounds tested. The share of hits here may be higher or lower than overall.

Menin-MLL FL inh	Compound
-1.2	C=CCOC(=O)N[C@H](C[N+](=O)[O-])c1ccccc1
-2.2[11.7 µM]	COc1ccc(OC2C=CC(c3ccccc3)OC2CO)cc1 (stereo not given)
1.7	CCCCC(=O)N(Cc1ccc(-c2ccccc2-c2nn[nH]n2)cc1)[C@H](C(=O)O)C(C)C
-4.3	O=C1OC2C[C@H]1[C@@H]1C(=O)N(Cc3ccccc3)CCC1C2I (stereo not given in full)
-4.8	O=C(c1cnccn1)N1CCC2(CCCN(Cc3ccccc3)C2)CC1
4.8	O=c1oc(-c2ccc(C(F)(F)F)cc2)nn1Cc1cc(Cl)ccc1O
?	Cc1nc2cnc(N(C)C)nc2n(C)c1=O
?	CCNc1ncc2nc(-c3cccs3)c(=O)n(-c3ccc(OC)cc3)c2n1
5.7	CC(=O)SC1CC2=CC(=O)CC[C@@]2(C)C2CC[C@@]3(C)[C@@H](CC[C@@]34CCC(=O)O4)C12 (stereo not given in full)
1.0	N#CCCn1c(=O)c(-c2ccc(Cl)cc2)nc2cnc(N3CCOCC3)nc21
2.4	CC(C)(C)C1=CC=C(C(C)(C)C)C(=O)C1=O
1.8	O=C(CSc1ccc2nnc(-c3ccncc3)n2n1)N1CCc2ccccc21
-2.2	COC(=O)c1ccc(C(NC(=O)OCc2ccccc2)/C(=C/[C@@H](C)C(=O)NCc2ccc(OC)c(OC)c2)c2cccnc2)cc1 (stereo not given in full)
2.4	COc1ccccc1CNc1nc(-c2ccc(N(C)C)cc2)nc2ccccc12
?	CC1(C)C(=O)NC2=C1C(=O)C(=O)c1ccccc12
1.0	O=C(N=Nc1c(O)n(C2OC(=O)c3ccccc32)c2ccccc12)c1ccco1 (stereo not given)
0.2	COC(=O)[C@@]1(Cc2ccccc2)[C@H]2c3cc(C(=O)N(C)C)n(C[C@H](O)CO)c3C[C@H]2CN1C(=O)c1ccccc1
6.1	Cc1ccc(S(=O)(=O)n2[nH]c(=O)cc2NC(=O)c2cccs2)cc1
-0.8	O=C(CCCCCNc1nc(=S)[nH]c2ccccc12)NCc1ccccc1Cl
0.8	CCCCCCCCCCCCCCCCOC[C@H](COP(=O)([O-])OCC[N+](C)(C)C)OC(=O)NC
-2.5	C=C1[C@@H](C)C2[C@H](Cc3ccccc3)NC(=O)[C@]23OC(=O)CC[C@H](O)CCC[C@H](C)C/C=C/[C@H]3[C@@H]1O (stereo not given in full)
-0.5	COCCn1c(=O)c(CCc2ccccc2)nc2cnc(OCc3ccccc3)nc21
4.4	N#CCCn1c(=O)c(CCc2ccccc2)nc2cnc(Oc3cccc(Cl)c3)nc21
-3.1	C=CCC(C)(O)c1cccs1 (stereo not given)
3.5	CCOC(=O)c1c(C)cc(OC)cc1O
-4.4[11.7 µM]	C=CC[C@@H]1C=C[C@H](Oc2ccc(C)cc2)[C@H](COC(=O)NCc2cccc3ccccc23)O1
0.6	COC(=O)c1cc2c(=O)n3ccccc3nc2n(C)c1=N
6.2	COCCNC(=O)/C(C#N)=c1\s/c(=C\c2ccccc2OC(F)F)c(=O)n1Cc1ccccc1
-1.7	O=c1c(-c2ccc(F)cc2)nc2cnc(N3CCNCC3)nc2n1Cc1cccs1
2.8&0.0	O=S(=O)(c1cccc2c(I)cccc12)N1CCCNCC1

Further entries follow.
Menin-MLL FL inh	Compound
?	COc1ccc(C(=O)N2CCC3(CCCN(c4ccc(-c5ccccc5)cc4)C3)CC2)cc1
1.9	CNc1ccccc1C(=O)N1CCc2c([nH]c3ccccc23)C1=O
-4.9	O=C(Nc1cccc(F)c1)N1CCCC2(CCN(C(=O)c3csnn3)CC2)C1
0.0	Cc1cc2cc(C)c3nnc(SCC(=O)N4CCCc5ccccc54)n3c2cc1C
4.2	COc1ccc2c(c1)O[C@H](c1ccc3c(c1)OCO3)[C@@H](OC(=O)NCc1ccc3c(c1)OCO3)C2=O
-0.2	C1CCc2nnnn2CC1
4.9	CCCC/C=C/C(NC(=O)c1ccccc1)c1ccccc1 (stereo not given)
0.3	CCCn1c(-c2ccc(F)cc2)nc2c(NC(C)CCCN(CC)CC)nc(C)nc21 (stereo not given)
-3.5	COc1ccc(NC(=O)Cn2cnc3c(nnn3-c3ccc(C)cc3)c2=O)cc1
0.3	C#Cc1ccc([C@@H]2C=C(C(=O)N3CCN(Cc4ccccc4)CC3)O[C@H](OCCCCO)C2)cc1
-3.2[11.7 µM]	CC1Cc2c(-c3ccccc3)nc3c(c2CO1)CN(CCOc1ccccc1)CC3 (stereo not given)
-4.7	CS(=O)(=O)OCC(O)C(O)COS(C)(=O)=O (stereo not given)
9.0	Cc1noc(C)c1C(=O)N1CCC2(CCCN(Cc3ccccc3)C2)CC1
?	CN1CCc2c(sc(NC(=O)c3ccc(S(=O)(=O)N4CCc5ccccc54)cc3)c2C(N)=O)C1
3.2	CC1(C(=O)O)CCC2(C)CCC3(C)C(=CC(=O)C4C5(C)CCC(O)C(C)(C)C5CCC43C)C2C1 (stereo not given)
0.7	CCCCc1ccc(NC(=O)COc2ccc(C(=O)Nc3ccccc3C)cc2)cc1
5.6	O=C(C1CCN(c2ncnc3c2sc2cccc(F)c23)CC1)N1CCCC1
-0.8	CCC(=O)OCC(=O)C1(OC(=O)CC)C(C)CC2C3CCC4=CC(=O)C=CC4(C)C3(Cl)C(O)CC21C (stereo not given)
1.1	COc1ccc(-c2nc3cnc(Oc4ccccc4)nc3n(CCC#N)c2=O)cc1
0.3[11.7 µM]	COc1ccc(OC2C(O)COC2/C=C/C#Cc2ccccc2)cc1 (stereo not given)
4.0	O=C1CCCC2=C1C(c1c(Cl)nc3sccn13)C1=C(CCCC1=O)N2
?	Cc1c(N=C2NC(=O)/C(=C/c3cccc([N+](=O)[O-])c3)S2)c(=O)n(-c2ccccc2)n1C
-3.3	Cn1c(=O)c(-c2ccccc2)nc2cnc(Oc3ccccc3)nc21
-8.9	COCC(=O)N1CCC[C@@]2(CCN(C(=O)Nc3ccc(OC)cc3)C2)C1
4.1	O=C(Cc1csc(-c2ccccc2)n1)NCc1ccccc1F
7.1	COC(=O)[C@@H]1C[C@@H]2CC[C@@H](O)C[C@@H]2N1Cc1ccc(N2CCOCC2)cc1
-8.2	CCN1CCC[C@@H]1CNC(=O)c1cc(S(N)(=O)=O)ccc1OC
2.6	COC/C=C/C1=CC2=CC(=O)C(C)(OC(=O)c3cnc4ccccc4n3)C(=O)C2=CO1 (stereo not given)
-3.1	CCOc1ccc(NC(C)C(=O)N/N=C/c2ccc([N+](=O)[O-])cc2)cc1 (stereo not given)
0.1[11.7 µM]	CC(C)[C@H](NC(=O)OC(C)(C)C)[C@@H](O)CC(=O)C(C)(C)C

Next section
Menin-MLL FL inh	Compound
2.8	CCCCNC(=O)NS(=O)(=O)c1ccc(C(=O)O)cc1
-1.9	Cc1oc(/N=C/c2c(O)ccc3ccccc23)c(C#N)c1C
-0.3	COc1ccc(/C(C)=N\NC(=O)c2ccc3c(c2)OCO3)cc1OC
7.0	COc1ccc(-n2nnc3c(SCC(=O)Nc4ccc5c(c4)OCCO5)ncnc32)cc1
0.2	O=C(Nc1cccc(F)c1)N1CC2(CCN(C(=O)c3csnn3)CC2)C1
1.9	COc1ccc(C2c3c(oc4c(C)cc(C)cc4c3=O)C(=O)N2Cc2cccnc2)cc1OC (stereo not given)
3.0	CCSc1nnc2n(N)c(=O)c3ccccc3n12
-1.5[11.7 µM]	CC[C@@H](c1ccccc1)n1c(=O)n2n(c1=O)[C@H]1[C@H](O)[C@H]3O[C@@H]3/C(=N/OCc3ccccc3)[C@@H]1CC2
5.0	CCCCCCCc1cc2ccccc2c(=O)o1
-0.6	C[C@]12CCC3c4ccc(O)cc4CCC3C1CCC2=O (stereo not given in full)
-0.9	O=C(c1cnccn1)N1CCC2(CCN(Cc3ccncc3)CC2)CC1
-0.9	COC(=O)C1=C(C)N(Cc2ccccc2)C(=O)N[C@@H]1c1ccccc1
-4.2	COc1ccc(C)cc1NC(=O)c1ccc(-c2ccc(C(C)=O)cc2)o1
-0.4	CC[C@H](C)[C@H](NC(=O)[C@H](Cc1ccc(O)cc1)NC(=O)[C@@H](NC(=O)[C@H](CCCN=C(N)N)NC(=O)[C@@H](N)CC(=O)O)C(C)C)C(=O)N[C@@H](Cc1cnc[nH]1)C(=O)N1CCC[C@H]1C(=O)O
5.1	Cc1ccc(NC(=O)N(Cc2cccs2)Cc2cc3cc4c(cc3[nH]c2=O)OCO4)cc1
?	C[C@H]1[C@@H](O)[C@@H](C)\C=C/C=C\C=C/C=C\C=C/C=C\C=C/[C@@H](O[C@H]2O[C@@H](C)[C@@H](O)[C@@H](N)[C@@H]2O)C[C@@H]2O[C@](O)(C[C@@H](O)C[C@@H](O)[C@@H](O)CC[C@@H](O)C[C@@H](O)CC(=O)O[C@H]1C)C[C@@H](O)[C@H]2C(=O)O (stereo in doubt)
-0.2	COc1ccc2[nH]cc(CCNc3cc(-c4ccccc4CN(C)C)ncn3)c2c1
-4.4	Cc1nc(NC2CCCCC2)c2nc(-c3ccccc3)n(C(C)CN(C)C)c2n1 (stereo not given)
1.8[11.7 µM]	C/C(CCN1CCCc2nc(C)c(C)cc21)=N\OC[C@@H](O)COCc1ccco1
0.5	Cn1c(SCC(=O)Nc2cc(=O)n(C)c(=O)n2C)nnc1-c1cccs1
-1.8[11.7 µM]	C#CCC(C(=O)OC)(C(=O)OC)C(C[N+](=O)[O-])c1ccccc1 (stereo not given)
-2.3[11.7 µM]	CC#CCN1c2ccccc2[C@]23C[C@@H](C(=O)OC)N(S(=O)(=O)c4c(C)noc4C)C2=NC(C(=O)OC)=C(C(=O)OC)[C@H]13
3.0	Cc1cc(=O)[nH]c2c(C)c(Cl)ccc12
11	O=C(CN1CCN(c2ccc(O)cc2)CC1)NC1CCCc2ccccc21 (stereo not given)
?	N[C@@H](C(=O)O)c1ccc(C(=O)O)c(C(=O)O)c1
3.7	N#Cc1cc2c(nc1SCc1nc3ccccc3[nH]1)CCC2
0.7	CSC1=Nc2sc3c(c2C2=NCCN12)CCCC3
-1.9	COc1ccc(NC(=O)N2CC3(CCN(C(=O)c4cccc(F)c4)CC3)C2)cc1
19	COc1ccc(-n2c(=O)c(CCc3ccccc3)nc3cnc(N4CCNCC4)nc32)cc1
-0.5	CC(C)C[C@@H](CC(=O)N[C@@H](CCCN)CC(=O)N[C@@H]1CCCC[C@H]1C(=O)N[C@H](CC(=O)N[C@@H](CCC(=O)O)CC(=O)O)Cc1c[nH]c2ccccc12)NC(=O)[C@@H]1CNCC[C@H]1N

Additional entries follow:
Menin-MLL FL inh	Compound
?	Cc1ccc2c(c1)C(=O)[C@]1(O)CCN(c3ccccc3)C1=N2
-2.5	C[C@H]([C@H](C)N1CC(=O)NC(=O)C1)N1CC(=O)NC(=O)C1
-18	O=C(O)[C@@H]1CSCN1
?	CN(C)c1ncc2nc(-c3cccs3)c(=O)n(CCc3ccccc3)c2n1
-3.1	COc1ccccc1CNc1ccnc(-c2ccc(C(=O)N(C)C)cc2)n1
-4.4	COC1[C@@H](OC)C[C@H](C)[C@@H](OC)C2=CC(=O)C=C(NC(=O)/C(C)=C/C=C\[C@H](OC)[C@@H](OC(N)=O)/C(C)=C/[C@@H]1C)C2=O (stereo not given in full)
-2.5	O=c1c(C=NCCN2CCNCC2)c(-c2ccccc2)[nH]n1-c1ccc([N+](=O)[O-])cc1
0.1	CC(C)C1=CC2=CCC3C(C)(C(=O)O)CCCC3(C)C2CC1 (stereo not given) (tested in a mixture with another compound)
2.4	CCOC(=O)C(CCc1ccccc1)NC(C)C(=O)N1C(C(=O)O)CC2CCCC21 (stereo not given)
?	COc1ccc(C2=N[C@@H](C(C)C)CO2)cc1
-5.5[11.7 µM]	COCOc1cc(OC)ccc1C(=O)/C=C\c1ccc2c(c1)OCO2
0.4	C=C(C)C(=O)c1ccc(OC)cc1
-2.0	COCC(=O)N1CCC[C@@]2(CCN(c3ccncc3)C2)C1
0.5	CCN1CCN(CCCNC(=O)C(NC(=O)C2CCC(C)CC2)C(C)C)CC1 (stereo not given)
-1.4	COc1ccc(-c2nc(-c3ccccc3)c(NC(C)C)o2)cc1
11	COc1cccc(C(=O)CC(=O)C(=O)Nc2cc(OC)c(OC)c(OC)c2)c1
5.0	Cc1cnc(C(=O)Nc2ccc(C(=O)N(C)C3CCCCC3)cc2)cn1
-1.5	O=c1cc(-c2cc3ccccc3oc2=O)c2ccc(O)cc2o1

Reprinted from above for reference:
Menin-MLL FL inh	Compound
-3.1	COc1ccccc1CNc1ccnc(-c2ccc(C(=O)N(C)C)cc2)n1
-4.4	COC1[C@@H](OC)C[C@H](C)[C@@H](OC)C2=CC(=O)C=C(NC(=O)/C(C)=C/C=C\[C@H](OC)[C@@H](OC(N)=O)/C(C)=C/[C@@H]1C)C2=O (stereo not given in full)
-2.5	O=c1c(C=NCCN2CCNCC2)c(-c2ccccc2)[nH]n1-c1ccc([N+](=O)[O-])cc1
0.1	CC(C)C1=CC2=CCC3C(C)(C(=O)O)CCCC3(C)C2CC1 (stereo not given) (tested in a mixture with another compound)
2.4	CCOC(=O)C(CCc1ccccc1)NC(C)C(=O)N1C(C(=O)O)CC2CCCC21 (stereo not given)
?	COc1ccc(C2=N[C@@H](C(C)C)CO2)cc1
-5.5[11.7 µM]	COCOc1cc(OC)ccc1C(=O)/C=C\c1ccc2c(c1)OCO2
0.4	C=C(C)C(=O)c1ccc(OC)cc1
-2.0	COCC(=O)N1CCC[C@@]2(CCN(c3ccncc3)C2)C1
0.5	CCN1CCN(CCCNC(=O)C(NC(=O)C2CCC(C)CC2)C(C)C)CC1 (stereo not given)
-1.4	COc1ccc(-c2nc(-c3ccccc3)c(NC(C)C)o2)cc1
11	COc1cccc(C(=O)CC(=O)C(=O)Nc2cc(OC)c(OC)c(OC)c2)c1
5.0	Cc1cnc(C(=O)Nc2ccc(C(=O)N(C)C3CCCCC3)cc2)cn1
-1.5	O=c1cc(-c2cc3ccccc3oc2=O)c2ccc(O)cc2o1

High-throughput results (PubChem)
